ALR inh – blocks human ALR sulfhydryl oxidase activity; P55789; purified ALR, DTT oxidation, H2O2 HRP-luminol luminescence; inhibition, % (test concentration not listed); 290,000 compounds, 3.8% hits;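 active means mean and each replicate at 75% or more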;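 further: stock transfer was 7.5 nL into about 7.5 µL; 0% = neutral wells and 100% = wells with inactivated enzyme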
Target sequence (P55789 whole entry, looked up): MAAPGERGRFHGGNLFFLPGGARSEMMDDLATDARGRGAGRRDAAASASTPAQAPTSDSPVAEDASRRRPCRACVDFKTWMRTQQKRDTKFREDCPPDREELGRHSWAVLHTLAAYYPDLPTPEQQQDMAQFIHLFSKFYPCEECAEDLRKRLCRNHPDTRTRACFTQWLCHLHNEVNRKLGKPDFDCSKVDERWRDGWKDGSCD
HNF4A DNA FP – change in binding of human HNF4 alpha to DNA. HNF4a-FITC DNA binding, fluorescence polarization, 1 h. activity change, % at 10 µM. 360,000 compounds, 0.3% hits. AID 1224865; in the data active means activity change above about 30%, passing the limit was not always enough;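 further: controls were the assay level and a saturating level of protein; the project sought stronger binding though the title names inhibitors; some compounds called inactive have numbers as strong as hits; positive values seem to mean higher polarization but the record does not say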
FGF22 binding – FGF22 (human) thermal shift binding; recombinant FGF22 thermal shift, SYPRO orange fluorescence; percent of sucrose octasulfate shift, DMSO zero; calls only at 9.99 µM; Q9HCT0; AID 651658; 340,000 compounds, 1.5% hits;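 active means melting point raised past a set limit in the mean and every replicate; three in four hits are not shown here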
UCH37 DUB inh – blocks the human deubiquitinase UCH37; Q9Y5K5; purified proteasome/UCH37, Ub-AMC cleavage fluorescence; inhibition, % (test concentration not listed); 330,000 compounds, 0.33% hits; AID 588478;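 active means mean of two replicates above 20%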;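 further: 0% = compound-free wells with enzyme and 100% = wells lacking proteasome; stock transfer was 100 nL into about 20 µL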
Target sequence (Q9Y5K5 whole entry, looked up): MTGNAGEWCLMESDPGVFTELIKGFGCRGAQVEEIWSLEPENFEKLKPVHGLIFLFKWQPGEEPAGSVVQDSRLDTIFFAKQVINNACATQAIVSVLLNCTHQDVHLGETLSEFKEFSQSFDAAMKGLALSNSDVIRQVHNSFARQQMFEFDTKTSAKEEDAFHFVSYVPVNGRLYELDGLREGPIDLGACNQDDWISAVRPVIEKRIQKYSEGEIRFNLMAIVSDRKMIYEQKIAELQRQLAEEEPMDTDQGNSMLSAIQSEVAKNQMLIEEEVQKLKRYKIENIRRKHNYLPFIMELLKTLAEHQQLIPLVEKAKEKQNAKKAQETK
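Material: Human UCH37 enzyme supplied as purified proteasome complex | Schedule: 30 min preincubation with enzyme, 25 min cleavage at room temperature | Detection: AMC fluorescence 355/460 nm | Measure: % inhibition of Ub-AMC cleavage fluorescence | Controls: Wells without proteasome as full block, compound-free enzyme plus substrate as uninhibited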
Ecoli growth – blocks Escherichia coli growth; OD600 absorbance (concentration not given with the values); AID 1053175; OD600, 23 h; active compounds read low; 330,000 compounds, 0.21% hits;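 active means OD600 absorbance below the run mean of sample wells minus 3.6 SD, in any replicate, cut at about 0.56 in these data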;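 further: stock transfer was 300 nL into about 60 µL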
Beta2AR agonist – human beta-2 adrenergic receptor agonism by FAP; P07550; 340,000 compounds, 0.43% hits; response, % (test concentration not listed); AID 504454; Am2.2-beta2AR cells, FAP receptor internalization, flow cytometry; reference of the scale not given here;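 active means response above a set limit, near 3 SD of response in nonfluorescent compounds, cut at about 42% in these data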;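 further: stock transfer was 100 nL into about 11 µL; a reference agonist was the positive control; negative values mostly stem from fluorescent compounds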
Target sequence (P07550 whole entry, looked up): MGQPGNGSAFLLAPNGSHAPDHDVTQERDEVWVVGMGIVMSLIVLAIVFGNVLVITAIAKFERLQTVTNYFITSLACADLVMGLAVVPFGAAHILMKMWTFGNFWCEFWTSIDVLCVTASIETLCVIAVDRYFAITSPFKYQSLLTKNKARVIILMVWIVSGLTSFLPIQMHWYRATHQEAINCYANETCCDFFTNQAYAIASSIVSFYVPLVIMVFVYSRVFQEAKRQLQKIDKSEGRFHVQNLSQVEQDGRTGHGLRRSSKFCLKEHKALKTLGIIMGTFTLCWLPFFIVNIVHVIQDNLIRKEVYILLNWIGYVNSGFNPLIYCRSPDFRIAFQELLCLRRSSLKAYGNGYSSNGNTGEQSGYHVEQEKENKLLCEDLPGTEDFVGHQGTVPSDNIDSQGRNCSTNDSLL
rRNA inh HTS – selective bacterial rRNA inhibition in E. coli; E. coli WT GFP vs humanized-ribosome RFP mutants, fluorescence, 24 h; active compounds read low; DMSO median 0, no signal -100; GFP signal change (wild-type ribosome), % (concentration not given with the values); 350,000 compounds, 1.6% hits;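 active means significant combined selectivity score with lowered wild-type GFP, culture density cut under 30%, mutant RFP and density less affected; inactive means any of these conditions unmet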; further: one replicate is shown; some compounds called inactive have numbers as strong as hits
rRNA inh HTS OD600 – second read-out of rRNA inh HTS, no call of its own (marks repeat the call); OD600 change, %; measured here: OD600 growth;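 optical density of the mix in the first replicate; 0 = DMSO median and -100 = no signal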
rRNA inh HTS RFP – also measured in rRNA inh HTS; calls as there; RFP signal change, %; measured here: RFP humanized mutant strains;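 first replicate; 0 = DMSO median and -100 = no signal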
Active calls of the source: *; i = inactive; / = not tested or not shown; & = joins results of further samples; ! = not confirmed by another sample.

SMILES | ALR inh | HNF4A DNA FP | FGF22 binding | UCH37 DUB inh | Ecoli growth | Beta2AR agonist | rRNA inh HTS | rRNA inh HTS OD600 | rRNA inh HTS RFP
Cc1cc(=O)oc2cc(N3C(=O)CC(Cc4ccccc4)C3=O)ccc12 (configuration not stated) | 1.5 | 4.5 | i | -22.0 | 0.709 | -4.9 | 4.4 | 7.8 | -0.6
Cc1ccccc1-c1cc(C(=O)N2CCCC2)c2ccccc2n1 | -10.5 | -13.9 | i | -1.4 | 0.716 | 0.3 | 3.7 | 4.6 | 1.8
CN(NC1OC(=O)c2ccccc21)c1ccc(C(F)(F)F)cc1[N+](=O)[O-] (configuration not stated) | 0.2 | 4.8 | i | 4.9 | 0.689 | 1.2 | -16.3 | -1.8 | -2.5
CC(NC(=O)c1ccc(S(=O)(=O)C(F)F)cc1)c1ccccc1 (configuration not stated) | / | -2.0 | i | 0.7 | 0.71 | 0.9 | 4.3 | 8.1 | -2.3
C/C(=N\NC(=O)C1(C)CC1(Br)Br)c1ccc([N+](=O)[O-])cc1 (configuration not stated) | / | 0.2 | i | / | / | -4.4 | / | / | /
CCOc1cc(-c2nn3cnnc3s2)cc(OCC)c1OCC | / | 2.5 | / | -1.5 | 0.676 | -4.0 | / | / | /
COc1ccc2ccc(O)c(CN3CCN(S(=O)(=O)c4cccc(C(F)(F)F)c4)CC3)c2c1 | / | 1.7 | i | 1.6 | 0.667 | 3.5 | 0.4 | 8.2 | 2.9
COc1ccc(N2CCN(CC(=O)N3N=CCC3c3ccccc3)CC2)cc1 (configuration not stated) | 83.9* | 0.6 | i | 3.2 | 0.648 | 0.6 | 18.3 | 13.2 | 1.4
O=C(Nc1ccccc1C(=O)N1CCOCC1)C1CC(=O)N(C2CCCC2)C1 (configuration not stated) | -31.2 | -1.2 | / | 3.3 | 0.642 | 9.0 | / | / | /
COc1ccc(CC(=O)Oc2ccc(Cl)cc2Br)cc1S(=O)(=O)N1CCOCC1 | 0.9 | -0.6 | i | 0.4 | 0.658 | -8.6 | 6.6 | 7.3 | -0.2
CN(CC#CC1(O)c2ccccc2-c2ccccc21)Cc1ccccc1 | -2.5 | 1.9 | / | 2.8 | 0.708 | -0.5 | / | / | /
Cc1ccc(S(=O)(=O)N2CCC(C(=O)Nc3ccc4c(c3)OCO4)CC2)cc1 | -41.9 | -2.1 | / | 3.9 | 0.704 | -1.8 | / | / | /
O=[N+]([O-])c1cccc(CN2C[C@@]34C=C[C@@H](C[C@@H]3S2(=O)=O)O4)c1 | 96.0* | 2.7 | i | 0.6 | / | -3.4 | 20.2 | 19.5 | 2.7
COc1ccc(C(=O)Nc2cccc(C)c2)cc1 | -5.9 | 3.1 | / | 3.8 | 0.689 | -1.1 | 10.6 | 10.9 | 2.0
Cc1ccc2cc(CNC(C)C)c(=O)[nH]c2c1 | 1.9 | 3.3 | / | 0.5 | 0.7 | -0.5 | / | / | /
COc1ccc(C2(CNC(=O)c3cccc([N+](=O)[O-])c3)CCOCC2)cc1OC | -0.3 | -1.9 | / | 2.9 | 0.676 | -4.0 | / | / | /
O=C(NN1CCOCC1)c1cc(-c2ccccc2)nc2ccccc12 | -7.1 | -3.6 | / | 2.9 | 0.682 | 2.5 | / | / | /
COCCN(C(=O)COC(=O)CCc1nc2ccccc2s1)c1c(N)n(Cc2ccccc2)c(=O)[nH]c1=O | 1.3 | 0.7 | i | 2.5 | 0.676 | 2.2 | 24.0 | 16.9 | 3.8
O=C(C1CC1)N1CCc2cc(S(=O)(=O)N3CCN(c4ccccc4)CC3)ccc21 | -7.9 | 0.0 | i | 4.3 | 0.695 | -12.3 | 1.2 | 6.0 | -2.7
Cc1onc(-c2ccccc2Cl)c1C(=O)Nc1ccc(-c2cn3cccnc3n2)cc1 | -0.6 | 4.0 | / | i | 0.726 | -10.9 | / | / | /
C/C(=N\NC(=S)Nc1c(C)cccc1C)c1ccc(O)cc1 | 87.3* | -0.9 | i | / | / | 0.1 | 5.4 | -2.1 | -4.4
Cc1cccc(Nc2cc(=O)[nH]c(=O)[nH]2)c1 | 9.6 | 1.9 | i | 1.1 | 0.694 | -1.9 | 19.1 | -0.3 | 1.5
CC(C)(C)n1nnnc1C(c1ccccc1)N1CCN(c2ccccc2)CC1 (configuration not stated) | / | -4.0 | i | / | / | / | -16.9 | -18.5 | 3.2
COc1cc(C(=S)N(C)C)ccc1O | 92.1* | 1.8 | / | 1.0 | 0.737 | -1.1 | / | / | /
O=C(COc1ccccc1)N1CCN(S(=O)(=O)c2cccc([N+](=O)[O-])c2)CC1 | -9.5 | -3.1 | i | 3.7 | 0.7 | -0.2 | 4.8 | -8.0 | -1.7
O=C(CSc1nncc2ccccc12)Nc1cccc(C(=O)O)c1 | / | -1.3 | i | 5.4 | 0.718 | -4.9 | 3.9 | -0.8 | -3.7
COc1cccc(CNC(=O)Cc2ccc(-n3c(=O)[nH]c4ccccc4c3=O)cc2)c1 | -4.0 | -3.6 | i | 3.2 | 0.69 | -26.3 | 17.8 | 11.9 | -10.8
CCn1c(CCc2ccccc2)n[nH]c1=S | 9.8 | -3.5 | i | 1.5 | 0.671 | 3.2 | 1.0 | 7.4 | -2.0
CN1OC[C@@H]2CN(Cc3cc(Cl)cc(Cl)c3)[C@H](c3cccc(Oc4ccccc4)c3)C[C@@H]21 | / | 3.8 | i | / | / | 6.3 | 9.3 | 15.0 | -3.3
Nc1nc(-c2ccco2)c(-c2ccco2)s1 | -13.1 | 2.4 | / | -1.4 | 0.706 | 5.3 | / | / | /

Record cards, as listed above. Order of screens: ALR inh, HNF4A DNA FP, FGF22 binding, UCH37 DUB inh, Ecoli growth, Beta2AR agonist, rRNA inh HTS, rRNA inh HTS OD600, rRNA inh HTS RFP
COc1cccc(CNC(=O)Cc2ccc(-n3c(=O)[nH]c4ccccc4c3=O)cc2)c1 as listed: -4.0, -3.6, i, 3.2, 0.69, -26.3, 17.8, 11.9, -10.8
COc1cc(C(=S)N(C)C)ccc1O as listed: 92.1*, 1.8, /, 1.0, 0.737, -1.1, /, /, /
Nc1nc(-c2ccco2)c(-c2ccco2)s1 as listed: -13.1, 2.4, /, -1.4, 0.706, 5.3, /, /, /

(listing goes on)
SMILES | ALR inh | HNF4A DNA FP | FGF22 binding | UCH37 DUB inh | Ecoli growth | Beta2AR agonist | rRNA inh HTS | rRNA inh HTS OD600 | rRNA inh HTS RFP
Cn1c(=O)oc2cc(S(=O)(=O)NCc3ccccn3)ccc21 | -4.8 | 2.7 | i | 3.3 | 0.691 | -7.2 | 4.2 | 13.6 | -2.7
Cc1ccc(C2C(C#N)=C(N)Oc3n[nH]c(-c4cccs4)c32)s1 (configuration not stated) | 51.1 | -3.9 | / | 7.4 | 0.714 | 7.4 | / | / | /
N#CC1=C(Nc2ccccc2Cl)SC(c2ccccc2O)NC1=O (configuration not stated) | 31.4 | -2.2 | i | 3.5 | 0.686 | 8.8 | -27.1* | -18.1* | -3.6*
CC(=O)c1cccc(NC(=O)c2cccc3c(-c4cccnc4)coc23)c1 | / | 1.1 | i | / | / | / | 2.8 | 16.7 | 4.8
CCC1CN(C(=O)N2CCC(C(=O)NCc3ccccc3OC)CC2)c2cc(C)ccc2O1 (configuration not stated) | -4.7 | 1.1 | i | 6.1 | 0.726 | 14.3 | -12.7 | -25.0 | 0.4
Cc1ccccc1C1N=C2Oc3ccccc3C=C2C(=O)N1 (configuration not stated) | / | 0.7 | i | / | / | / | 21.5 | 24.4 | 3.1
COC(=O)[C@@]12C[C@@H](CC(=O)NCc3ccccc3)C(=O)N(Cc3ccco3)C1=CCC(C)(C)C2 | / | 3.5 | i | / | / | / | -3.4 | -15.2 | 0.3
COc1ccc(-c2c(C#Cc3ccc(N(C)C)cc3)c3ccccc3n2C)cc1 | 7.9 | 8.1 | i | -26.5 | / | 1.1 | 9.7 | 4.6 | 9.0
COc1ccc(NC(=O)C(=O)NCC(=O)Nc2cccc(C(F)(F)F)c2)cc1 | -2.8 | -1.9 | i | 0.5 | 0.713 | 4.5 | 15.1 | 15.4 | 1.7
CCOC(=O)C1CCN(C(=S)NC2CC3C=CC2C3)CC1 (configuration not stated) | / | 3.4 | i | 5.3 | 0.691 | -6.7 | 1.4 | 1.0 | 3.2
O=C(NC1(C(F)(F)F)NC(=O)N(c2ccccc2F)C1=O)c1ccncc1 (configuration not stated) | -21.1 | -0.8 | i | 3.6 | 0.724 | -3.3 | 6.1 | 2.5 | -1.5
CC(C)NC(=O)N1Cc2cc(C(=O)NC3CCCCC3)nc(-c3cccc(-c4cccnc4)c3)c2[C@@H]1CCO | / | -1.6 | i | / | / | / | -40.3*! | -30.5*! | 0.0*!
COc1ccc([N+](=O)[O-])cc1NS(=O)(=O)c1cc(C(=O)N2CCN(C)CC2)ccc1OC | -6.4 | -2.1 | i | 6.2 | 0.69 | -3.0 | -6.9 | 2.3 | -1.8
COc1cc(/C=N/NC(=O)c2ccc3c(c2)OCCO3)c(Br)c(Br)c1O | 13.8 | -0.4 | i | / | / | 3.0 | 6.8 | 1.1 | -0.2
C[C@H]1CN([C@@H](C)CO)C(=O)c2cc(Br)cnc2O[C@H]1CN(C)Cc1ccccc1C(=O)O | / | 2.5 | i | / | / | / | 4.0&5.9 | 5.0&2.9 | 4.5&-0.1
CCCCN1Cc2cc(C(=O)c3cc(F)ccc3O)cnc2NC1=O | 5.1 | -0.7 | / | -5.7 | 0.693 | 1.5 | / | / | /
Cc1cccc(Oc2coc3cc(OC(=O)c4cccs4)ccc3c2=O)c1 | 0.7 | -0.8 | / | -10.9 | 0.687 | -4.5 | / | / | /
Cn1c(CNc2ccc(Cl)cc2)nc2ccccc21 | -3.3 | -3.8 | / | 1.8 | 0.705 | 3.2 | / | / | /
O=C(CCCn1cc([N+](=O)[O-])cn1)NCc1ccccc1 | -15.9 | 0.0 | i | 3.2 | 0.707 | 5.0 | -0.1 | -1.7 | -2.1
COc1ccc(Br)cc1/C=N/N1CCN(Cc2ccccc2)CC1 | -1.3 | -1.4 | i | / | / | 2.8 | -17.0 | 0.3 | 3.9
COc1ccc(N2CC(C(=O)OCC(=O)NCc3ccccc3)CC2=O)cc1 (configuration not stated) | 0.0 | 2.4 | i | 5.5 | 0.669 | -2.0 | 15.7 | 7.2 | 1.2
O=C(CSCc1ccc(F)cc1)N1CCN(c2ccc(F)cc2)CC1 | 97.8* | 1.1 | / | 4.2 | 0.712 | 7.5 | / | / | /
NS(=O)(=O)c1cc(C(=O)N=Nc2c(O)[nH]c3ccccc23)ccc1Cl | -4.7 | -0.8 | i | 7.7 | 0.681 | 9.5 | -16.4 | -2.7 | -1.8
O=S(=O)(NCc1c(Cl)cccc1Oc1ccccc1)c1ccccc1 | / | -3.6 | i | 1.1 | 0.672 | 2.8 | -29.4 | -25.8 | -2.0
C[C@H](CO)N1C[C@H](C)[C@H](CN(C)C(=O)NC2CCCCC2)Oc2ncc(Br)cc2C1=O | / | 1.7 | i | / | / | / | -2.3&3.2 | -2.6&4.4 | -0.4&0.5
OC(COc1ccc(-c2ccccc2)cc1)CN1CCOCC1 (configuration not stated) | -0.7 | / | / | 5.0 | 0.64 | / | / | / | /
N#CCCn1cc(C(N)=O)c(-c2ccc3ccccc3c2)n1 | -6.2 | -0.5 | i | 3.8 | 0.637 | -3.6 | 14.3 | 5.5 | -0.4
CCCCCN1CN(S(=O)(=O)c2cccs2)c2nc3ccccc3nc21 | 10.0 | 2.4 | i | -2.7 | 0.689 | 0.4 | -30.2 | -30.4 | -10.5
COc1ccc(/C=N/NC(=O)c2cccc(Br)c2)cc1COc1ccccn1 | 28.6 | -3.9 | i | / | / | 0.3 | 11.4 | -3.8 | 3.2

Source: PubChem (several laboratories)

Not all compounds are listed; count on the stated rates, not on these rows.
